RecA splice inh: Mtb RecA intein splicing inhibition. P9WHJ3. cell-free RecA intein splicing, fluorescence. inhibition, %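 (about 9 µM by stock and volumes)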. 290,000 tested, 0.75% active. AID 2221; in the data active = inhibition above about 30%; inconclusive = no clear call, values can overlap the other calls;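 also: 0% = vehicle wells and 100% = reference inhibitor control wells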
Target sequence (P9WHJ3 whole entry, looked up, canonical isoform): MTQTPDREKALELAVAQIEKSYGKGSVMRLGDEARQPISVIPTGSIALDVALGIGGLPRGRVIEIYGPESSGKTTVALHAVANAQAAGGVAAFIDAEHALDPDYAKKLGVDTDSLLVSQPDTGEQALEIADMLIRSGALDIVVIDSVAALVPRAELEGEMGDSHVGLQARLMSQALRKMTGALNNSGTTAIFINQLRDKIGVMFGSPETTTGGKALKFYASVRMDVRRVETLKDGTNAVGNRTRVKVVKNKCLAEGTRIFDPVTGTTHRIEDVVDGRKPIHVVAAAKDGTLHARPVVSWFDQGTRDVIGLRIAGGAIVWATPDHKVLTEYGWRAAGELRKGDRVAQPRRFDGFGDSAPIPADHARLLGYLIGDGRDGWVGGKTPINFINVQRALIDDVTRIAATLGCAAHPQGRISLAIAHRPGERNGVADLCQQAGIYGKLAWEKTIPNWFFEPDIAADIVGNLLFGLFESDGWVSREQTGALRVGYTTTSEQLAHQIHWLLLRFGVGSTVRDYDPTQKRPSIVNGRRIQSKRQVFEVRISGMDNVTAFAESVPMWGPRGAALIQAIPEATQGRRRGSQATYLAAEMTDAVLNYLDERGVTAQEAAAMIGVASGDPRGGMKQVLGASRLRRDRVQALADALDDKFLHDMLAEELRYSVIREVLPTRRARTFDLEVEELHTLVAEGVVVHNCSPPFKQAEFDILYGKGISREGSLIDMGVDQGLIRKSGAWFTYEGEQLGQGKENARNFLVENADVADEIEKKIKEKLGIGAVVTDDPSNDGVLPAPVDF
Arbovirus anti: blocks arbovirus infection; arbovirus infection cell-based antiviral screen; inhibition, % at 10 µM; 200,000 tested, 0.37% active;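 active = inhibition from about 30%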;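 also: bluetongue infection of BSR cells; cell survival read as ATP light after 72 h; 0% = infected wells without compound and 100% = uninfected wells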
Mtb betalactam: beta-lactam sensitization of Mtb H37Rv; inhibition, % at 25 µM; 330,000 tested, 0.27% active; M. tuberculosis H37Rv growth with meropenem, percent inhibition; hits of this screen are not shown here;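 active = about 74% or more and at least 40 points above the plate without the antibiotic, then above 30% in a dose series; inconclusive = first-round hits that could not be retested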;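 also: growth measured after seven days incubation then overnight dye step; 0% = bacteria only wells and 100% = bacteria with antibiotic; twin plates without the antibiotic show which effects depend on it; some results filed as inactive read as strong as hits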
YopH PTP inh: inhibitors of Yersinia enterocolitica YopH tyrosine phosphatase. 140,000 tested, 0.16% active. inhibition, %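 (about 10 µM by stock and volumes)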. fluorescence Ex485/Em525. AID 898;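 active = inhibition of 50% or more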;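 also: controls were vehicle for no effect and minimum signal wells for full effect; inactives centre near -20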
Mtb H37Rv: M. tuberculosis H37Rv growth inhibitors, H37Rv strain (AID 1626) | one-dose inhibition, % at 10 µM; IC50 in µM for titrated hits | M. tuberculosis H37Rv growth inhibition; higher % means a stronger effect | 220,000 tested, 0.95% active;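 active = confirmed in a dose series; inconclusive = inhibition above 80% but not taken into the dose series; inactive = below 80% or under 30% at every dose of the series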;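 also: bacteria incubated seven days before Alamar blue readout; 0% = bacteria only wells and 100% = bacteria with antibiotic wells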
Arbovirus anti repeat: also measured in Arbovirus anti; calls as there; inhibition, %; measured here: 10K subset replicate screen; many hits read low in the repeat;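 first of two repeat runs on a subset; 0% = infected and 100% = uninfected wells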
* marks the source's active call; other numbers are inactive results; ? = inconclusive; . = no result given. These rows are one share of the data; count on the stated rates, not on these rows.

SMILES | RecA splice inh | Arbovirus anti | Mtb betalactam | YopH PTP inh | Mtb H37Rv | others
CCC1(C)Cc2c(sc3nc(SC)[nH]c(=O)c23)CO1 (stereo not given) | -0.5 | . | -1.7 | . | -6.0%
COc1ccc(C(=O)Nc2cccc(-c3nnc(-c4ccco4)o3)c2)cc1 | 0.1 | -1.1 | 93.8 | -19.8 | -4.2%
CC(C(=O)NC1CCCC1)N1C(=O)c2cccc3cccc1c23 (stereo not given) | -11.7 | . | -2.5 | . | .
CN1C(=O)c2ccc(NC(=O)c3ccc(N4CCCCC4)c([N+](=O)[O-])c3)cc2C1=O | 0.6 | 3.1 | 20.6 | -17.0 | 4.0%
Cn1c(=O)c(=O)n(C)c2cc([N+](=O)[O-])c(N3CCOCC3)cc21 | 2.8 | . | 0.4 | . | .
Clc1cccc2sc(N3CCN(c4ccccc4)CC3)nc12 | 13.2 | -6.0 | 93.6 | -38.4 | 8.6%
NC(=O)c1ccc(N2CCCCC2)c(N2C(=O)C3CC=CCC3C2=O)c1 (stereo not given) | -3.0 | 1.7 | 3.7 | 14.5 | -6.6%
NC(=O)C1CCN(C(=O)CN(c2cccc(C(F)(F)F)c2)S(=O)(=O)c2ccccc2)CC1 | 4.7 | -1.6 | -10.8 | 7.3 | -10.1% | Arbovirus anti repeat=1.9
O=C(NCC1OCCc2ccccc21)c1ccc(NC(=O)c2cccc(Br)c2)cc1 (stereo not given) | -3.1 | -11.7 | 3.1 | -21.1 | 56.5%
CCOc1ccc(N=C2SCCCN2C)cc1 | -0.9 | -6.4 | -3.0 | -28.7 | -7.0%
CC(C)CC(NS(=O)(=O)c1cc(C(=O)O)ccc1Cl)C(=O)O (stereo not given) | -0.4 | 16.7 | -3.3 | . | -3.1%
CCOC(=O)CNC(=O)CSc1nc(-c2cccc(C)c2)ns1 | -0.8 | 5.2 | 99.9 | . | 1.5µM*
COc1ccccc1OCc1ccc(C(=O)Nc2ccccc2F)cc1 | -2.4 | 0.1 | 8.1 | -32.0 | -5.5%
O=C(C(=O)N1CCCCCC1)c1c[nH]c2ccccc12 | 1.0 | . | 2.0 | . | .
CC(/C=N\NC(=O)Cn1cncn1)=C/c1ccc(C(C)C)cc1 | 3.1 | . | 8.2 | . | 4.3%
COc1ccc(C2=NN(C(=O)CCCC(=O)O)C(c3cccs3)C2)cc1OC (stereo not given) | -0.4 | 1.6 | -2.1 | . | -3.6%
CS(=O)(=O)c1cccc(C(=O)NCc2ccccc2)c1 | -1.6 | 0.7 | -5.4 | -29.5 | -2.5%
CC(C)C[C@H](NC(=O)OC(C)(C)C)C(=O)N/N=C/C1=Cc2ccccc2OC1C (stereo not given in full) | -0.1 | -32.6 | 1.6 | -12.4 | 9.7%
CC1=C(C(=O)Nc2ccccn2)C(c2ccccc2Cl)NC(=S)N1 (stereo not given) | 0.4 | 2.5 | 2.4 | . | 4.3%
O=C(CSc1nnc(NC(=O)C2CC2)s1)Nc1ccccc1 | -0.7 | . | 0.0 | . | .
Cc1ccc2cccc(OCC(=O)Nc3ccc4c(c3)OCO4)c2n1 | -2.0 | -5.4 | -0.2 | . | -5.5%
CCc1ccc(-c2csc3[n+]2CCN3C(C)=O)cc1 | -1.8 | -10.4 | -0.7 | -6.4 | -0.6%
Cc1ccc(Cl)c(OCCN2CCc3ccccc3C2)c1 | 1.9 | . | -7.7 | . | .
CCC(c1nnnn1C(C)(C)CC)N1CCN(c2ccccc2F)CC1 (stereo not given) | 1.6 | -5.2 | -1.1 | . | 5.6%
CCOC(=O)N1CCN(Cc2nc(N)nc(Nc3ccc(Cl)cc3)n2)CC1 | 1.1 | -0.4 | 16.4 | . | 2.8%

Grouped by structure, the compounds so far containing an aryl methoxy group (three)
SMILES | RecA splice inh | Arbovirus anti | Mtb betalactam | YopH PTP inh | Mtb H37Rv | others
COc1ccc(C(=O)Nc2cccc(-c3nnc(-c4ccco4)o3)c2)cc1 | 0.1 | -1.1 | 93.8 | -19.8 | -4.2%
COc1ccccc1OCc1ccc(C(=O)Nc2ccccc2F)cc1 | -2.4 | 0.1 | 8.1 | -32.0 | -5.5%
COc1ccc(C2=NN(C(=O)CCCC(=O)O)C(c3cccs3)C2)cc1OC (stereo not given) | -0.4 | 1.6 | -2.1 | . | -3.6%

Returning to the listing, starting 4 compounds before the break.
SMILES | RecA splice inh | Arbovirus anti | Mtb betalactam | YopH PTP inh | Mtb H37Rv | others
CCc1ccc(-c2csc3[n+]2CCN3C(C)=O)cc1 | -1.8 | -10.4 | -0.7 | -6.4 | -0.6%
Cc1ccc(Cl)c(OCCN2CCc3ccccc3C2)c1 | 1.9 | . | -7.7 | . | .
CCC(c1nnnn1C(C)(C)CC)N1CCN(c2ccccc2F)CC1 (stereo not given) | 1.6 | -5.2 | -1.1 | . | 5.6%
CCOC(=O)N1CCN(Cc2nc(N)nc(Nc3ccc(Cl)cc3)n2)CC1 | 1.1 | -0.4 | 16.4 | . | 2.8%
OC1(c2ccccc2F)CC2CCC(C1)N2CCN1CCOCC1 (stereo not given) | 0.2 | 2.6 | -9.8 | -1.4 | 14.0%
Cc1ccc(NC(=S)Nc2cccc3cnccc23)c(C)c1 | 2.3 | -33.0 | 2.3 | . | ?
Cc1ccccc1-c1noc(-c2ccccc2C(=O)NCc2ccco2)n1 | 1.6 | . | 10.0 | . | 4.0%
Cn1c(C(=O)OC(C(=O)NC2CCCCC2)c2ccccn2)cc2sccc21 (stereo not given) | 0.7 | -3.3 | 3.4 | -16.6 | -14.2%
CN(c1ccc(C(=O)NCC2CCCO2)cc1)S(C)(=O)=O (stereo not given) | 11.1 | 7.4 | -2.4 | -2.9 | -13.6%
Cc1cc(C(=O)Nc2ncn[nH]2)ccc1[N+](=O)[O-] | -6.9 | -4.6 | -1.2 | -9.5 | 1.6%
Cc1cc(N2CCOCC2)nc2ccc(NC(=O)CCC(=O)N3CCC(C)CC3)cc12 | -2.7 | 3.4 | ? | -38.3 | -1.7%
CCOC(=O)c1c(N)sn(-c2ccccc2C)c1=S | -4.1 | 4.9 | 2.6 | -25.2 | 4.9%
O=C(CN1C(=O)CSC1=O)Nc1ccc(N2CCOCC2)cc1 | -2.2 | 5.3 | 2.4 | -27.7 | .
COc1cc(/C=N/N(C)C2=NS(=O)(=O)c3ccccc32)cc(OC)c1OC | -7.6 | . | 0.1 | . | .
O=S(=O)(c1cccs1)N1CCN(c2ccccn2)CC1 | -0.4 | 5.1 | -1.0 | -30.1 | 5.3%
Cc1ccc(S(=O)(=O)N/N=C/c2ccc(O)c(O)c2)cc1[N+](=O)[O-] | -4.0 | -17.5 | -10.1 | . | -1.8%
Cc1nc(CS(=O)(=O)c2ccccn2)sc1C(=O)NNC(=O)c1ccc(Cl)cc1 | -1.0 | . | -10.9 | . | -3.2%
Cc1cc(NC(=O)Cc2ccccc2)no1 | 0.5 | 0.1 | 1.3 | -17.7 | 0.2%
O=C(c1ccc(F)cc1)N(NC(=O)C(O)(c1ccccc1)c1ccccc1)c1ccccc1 | -2.9 | 0.1 | -0.3 | -15.5 | 2.7%
CCOC(=O)c1c(C)[nH]c(C(=O)COC(=O)C23CC4CC(CC(Cl)(C4)C2)C3)c1C | 0.2 | -3.0 | -18.7 | -9.0 | 3.5%
CCC(C)c1ccc(OCC(=O)Nc2ccc3[nH]c(=O)[nH]c3c2)cc1 (stereo not given) | -2.4 | -1.7 | 5.6 | -1.8 | 5.6%
NC(=O)NCc1cccnc1 | . | 1.7 | 0.5 | . | 6.8%
CCOC(=O)CS(=O)(=O)c1nc(-c2ccc(F)cc2)cc(C(F)(F)F)n1 | 73.6* | -25.9 | 95.6 | -35.5 | 0.8%
Cc1ccccc1OCCSc1nnc(-c2cccnc2)n1N | 1.5 | 5.1 | -0.4 | -23.0 | -0.6%
Cc1cccc(-n2c(O)c(C=NCCCN3CCOCC3)c(=O)[nH]c2=O)c1C | 0.2 | 2.7 | 2.8 | 13.9 | 13.5%
O=C(Cc1ccc(Cl)cc1)Nc1cccc(S(=O)(=O)Nc2ccccc2F)c1 | -0.4 | 10.5 | -1.5 | -22.0 | 4.0%
CCCCNC(=O)COC(=O)CCC(=O)c1ccc(F)cc1 | -0.7 | 2.5 | -9.4 | 6.1 | -0.6%
CC(CN1CCCCC1)NC(=O)c1cccs1 (stereo not given) | -2.9 | . | -4.6 | . | .
CCS(=O)(=O)N1CCC2(CC1)OCCN2S(=O)(=O)c1ccc(C)cc1 | -3.0 | . | -7.2 | . | .

The list continues.
SMILES | RecA splice inh | Arbovirus anti | Mtb betalactam | YopH PTP inh | Mtb H37Rv | others
Cc1ccc(S(=O)(=O)NC(C)(C)CSc2nnc(N)s2)cc1 | 1.1 | -4.2 | -13.9 | -0.9 | 9.7%
Nc1nc(-c2ccccc2)c(-c2ccccc2)s1 | 8.6 | 0.0 | -5.6 | -33.3 | 4.4%
CC(=O)c1ccc(NC(=O)CO/N=C(\C)c2cccs2)cc1 | -2.4 | 2.3 | -0.9 | -2.2 | -0.5%
CCCN(CC(=O)Nc1ccc(Cl)cc1Cl)C(=O)c1ccc(=O)[nH]c1 | 0.2 | . | -5.8 | . | .
CN=C1S/C(=C\c2ccc(OCC(=O)OC)c(OC)c2)C(=O)N1C | -3.3 | . | 98.5 | . | .
Cc1c(C(=O)N2CCN(S(=O)(=O)c3ccc(F)cc3)CC2)oc2ccccc12 | -0.8 | . | 80.5 | . | .
O=C(COc1cccc2c1CCNC2=O)Nc1cccc(C(F)(F)F)c1 | 0.4 | . | -11.3 | . | .
O=C(Nc1cccc(F)c1)c1ccc(S(=O)(=O)N2CCCC2)cc1 | 0.0 | -1.1 | -9.0 | . | -7.5% | Arbovirus anti repeat=-0.5
COc1cc(/C=N/NC(=S)Nc2cccnc2)cc(OC)c1O | -5.2 | 7.0 | -5.8 | . | -2.4%
Cn1c(-c2cccc(Br)c2)cnc1NCc1cccnc1 | -6.1 | 2.7 | -3.6 | -44.9 | 0.0%
O=C(NNS(=O)(=O)c1ccccc1)c1cccs1 | 2.3 | -6.1 | 42.5 | -20.7 | -3.5%
CC(C)Oc1cccc(-c2nnc(SCC(=O)Nc3ccc4c(c3)OCCO4)n2N)c1 | 3.3 | -2.9 | 1.9 | -2.5 | -4.8%
O=C(Nc1ccc2c(c1)OCO2)N1CCC(CO)(CC2CCCCO2)CC1 (stereo not given) | 3.1 | -14.8 | -11.8 | . | -1.7%
CCCc1cc(C(=O)NCCc2ccccc2)no1 | 0.7 | -5.8 | 4.2 | -12.0 | 10.3%
C/C(=N\O)c1ccc(Cl)cc1Cl | . | . | -1.8 | . | -1.4%
Oc1ccc(/C=N/NC(=S)NCCN2CCOCC2)c(O)c1 | -8.8 | 0.5 | -3.8 | . | 2.7%
CCNC(=O)/C(=C/c1ccc2c(c1)OCO2)NC(=O)c1ccc(Br)cc1 | 0.7 | -5.4 | -2.7 | -31.9 | 5.8%
O=[N+]([O-])c1ccccc1Oc1ccccc1Cl | -0.2 | -7.7 | -3.4 | -13.6 | 6.8%
COc1ccc(NC(=O)Cn2cccc2)cc1Cl | -0.3 | -10.2 | 14.2 | -48.0 | 66.7%
CCc1ccc(CNC(=O)c2ccc(OC3CCN(C(=O)COC)CC3)cc2)nc1 | -0.2 | . | -1.6 | . | .
COc1ccc(S(=O)(=O)n2cccc2)c(OC)c1 | -0.7 | . | -2.8 | . | .
Cc1nn(CC2CC2)c(=O)n1-c1ccc(Cl)cc1 | -2.8 | 3.4 | -13.6 | . | 3.8%
Nc1ccc(Oc2ccc3nc(-c4ccccc4)c(-c4ccccc4)nc3c2)cc1 | 0.4 | -8.8 | 76.5 | -5.5 | 26.5%
COc1ccc(N2CCN(C(=O)c3ccc(C)cc3Cl)CC2)cc1 | -1.6 | -0.1 | 5.8 | -17.7 | 8.3%
OCC1(Cc2cccc(Cl)c2)CCCN(Cc2ccc(F)c(F)c2)C1 (stereo not given) | 3.0 | . | 9.8 | . | .
Cc1cc(/C([O-])=C(/C(=S)Nc2ccccc2)[n+]2ccccc2)c(C)n1-c1ccccc1 | 12.2 | 8.8 | -0.8 | -10.7 | 8.1%
Cn1c2c(c(=O)[nH]c1=O)C(c1cccc(O)c1)C1=C(N2)c2ccccc2C1=O (stereo not given) | . | -22.4 | . | . | -7.1%

2 compounds drawn at random from those above, as already listed:
SMILES | RecA splice inh | Arbovirus anti | Mtb betalactam | YopH PTP inh | Mtb H37Rv | others
CCCc1cc(C(=O)NCCc2ccccc2)no1 | 0.7 | -5.8 | 4.2 | -12.0 | 10.3%
CC(=O)c1ccc(NC(=O)CO/N=C(\C)c2cccs2)cc1 | -2.4 | 2.3 | -0.9 | -2.2 | -0.5%

High-throughput results from PubChem.
